Assay outcomes from PubChem.
CapD inh: Bacillus anthracis CapD inhibitors, primary screen, biochemical, fluorescence intensity | CapD gamma-glutamyltranspeptidase (Bacillus anthracis Ames Ancestor) | purified CapD enzyme, fluorescence intensity read-out; hits give low values; some hits fall short of the stated cut | z-score (concentration not given with the values) | actives 0.23% (n = 140,000);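 active = z-score under -4 in either of two replicates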;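 note: stock transfer was 100 nL into about 40 µL; score is relative to mean and spread of the plate; one replicate is shown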
AID504770: growth inhibition of E. coli YBA685, primary screen, V. cholerae RctB inhibitors | AID 504770, 2011 | z-score (concentration not given with the values) | E. coli YBA685 rctB-dependent plasmid, OD600 growth, 3 h; hits give low values | actives 0.27% (n = 130,000);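 active = z-score under -2 on both plates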;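 note: wells of about 30 µL received 100 nL stock; score is relative to mean and SD of the test wells; the first replicate is given; strong numbers were not always called active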
An asterisk follows results filed as active; / = not tested or not shown; & = joins results of further samples.

No. | structure | AID504770 | CapD inh
1 | COc1ccc(-c2cc(C(F)(F)F)nc(N3CCCCCC3)n2)cc1 | 1.45 | 9.41
2 | CC(=O)OCCCn1c(C)nc2cc(Cl)ccc21 | -1.6 | 0.215
3 | c1ccc(CCNc2nc3ccccc3[nH]2)cc1 | -1.4 | -0.21
4 | CCCCN(C(=S)Nc1ccc(C)cc1)C1CCN(C(C)=O)CC1 | -0.25 | 0.22
5 | O=C(NCc1cc(C(F)(F)F)cc(C(F)(F)F)c1)c1ccc(F)cc1F | / | -0.005
6 | CCN(CC)C(=O)C1(P(=O)(c2ccccc2)c2ccccc2)CC1 | 0.7 | 0.1
7 | COc1ccc(OC)c(/C=C2\SC(=N)N(c3ccc(F)cc3)C2=O)c1 | / | -0.485
8 | CCN1C(=O)/C(=C2/Sc3ccccc3N2c2ccccc2)SC1=S | / | -0.68
9 | Cc1occc1-c1nnc(SCC(=O)N(CCc2ccccc2)Cc2ccccc2)n1N | -0.3 | /
10 | COCCn1cnc2c1c(=O)n(CC(O)c1ccccc1)c(=O)n2CC(C)C (centres undefined) | -1.3 | /
11 | N#CSCCCOc1ccc2ccccc2c1 | -0.45 | 1.03
12 | CCN(CC)C(=O)Cn1c(-c2ccc(OC)c(OC)c2)nc2ccccc2c1=O | / | 66
13 | CCCCn1c(N)c(N2CCOCC2)c(=O)n(CC(=O)N2C(C)CCCC2C)c1=O (centres undefined) | -0.3 | /
14 | Cc1[nH]n(C)c(=O)c1N=Nc1c(Cl)cc(C(F)(F)F)cc1Cl | -1.45 | 0.105
15 | CCC(OC(=O)c1cc2sccc2n1C(C)C)C(=O)NCc1ccc(OC)cc1 (centres undefined) | -0.7 | /
16 | O=C1/C(=C/c2cccs2)SC(=S)N1c1cc(Cl)cc(Cl)c1 | -0.3 | 0.06
17 | COc1ccc(Br)cc1COC(=O)C1c2ccccc2Oc2ccccc21 | -0.45 | 0.015
18 | O=C(N/N=C/c1cccc2ccccc12)N/N=C/c1cccc2ccccc12 | / | -0.735
19 | COC(=O)c1cccc(NC(=O)c2ccccc2)c1 | -1.05 | 0.12
20 | NNC(=O)CNC(=O)c1ccc2c(c1)OCO2 | 2.3 | /
21 | Cc1ccc(C)c(OC2=NS(=O)(=O)c3ccccc32)c1 | 0.55 | 1.06
22 | COc1ccccc1NC(=O)Cn1c(CN2CCCCC2)nc2ccccc2c1=O | -0.6 | /
23 | CC(C)CCNC(=O)c1cc2sccc2n1Cc1ccc(F)cc1 | -2.5 | /
24 | O=c1[nH]cnc2ccc(Br)cc12 | -0.65 | 0.005&0.05
25 | Cc1cc(=O)oc(C)c1C(=O)NC1CCCc2ccccc21 (centres undefined) | 1.15 | -0.38
26 | Cc1ccc(C(=O)c2coc3ccc(O)cc23)o1 | 0.55 | -0.325
27 | Cc1cc(C(=O)O)cs1 | 1.6 | /
28 | COCC(=O)N(CC1CCCO1)c1nnc(C)s1 (centres undefined) | 0.3 | /
29 | COc1cccc(NC(=O)CSc2nc3ccccc3c(=O)n2CCCC(=O)NCCCN2CCOCC2)c1 | / | -0.57
30 | O=C(Nc1cccnc1)c1cccn(Cc2cccc(Cl)c2)c1=O | 1.4 | /
31 | COc1ccc(C2CC(=O)C3=C(C2)Nc2ccccc2NC3c2cc(Br)c(OC)c(OC)c2)cc1OC (centres undefined) | / | -0.73
32 | CC1(C)CC(=O)C(C=NCCCN2CCCC2=O)=C(O)C1 | -0.8 | /
33 | CC(On1nnc2ccc(C(F)(F)F)cc21)C(=O)Nc1ccc(C#N)cc1 (centres undefined) | 0.3 | /
34 | O=C(CSc1nc(NCc2ccco2)c2ccccc2n1)N1CCN(c2ccccc2)CC1 | / | -0.55
35 | CC1CCc2c(sc(NC(=O)CN(Cc3ccccc3)Cc3ccccc3)c2C#N)C1 (centres undefined) | 0.05 | -0.03
36 | CCc1ccccc1NC(=O)CNC(=O)c1n[nH]c(=O)c2ccccc12 | -0.3 | /
37 | COc1ccc(Oc2c(N(C)C)cnn(-c3ccc(C)cc3)c2=O)cc1 | / | -1.07
38 | COc1cccc(C=Nc2cccc(C(=O)O)c2C)c1O | 0.45 | -0.575
39 | COc1ccc(C=Nc2cc3c4c(c2)C(c2ccccc2)CCN4CCC3c2ccccc2)cc1 (centres undefined) | / | -0.105
40 | CC1(C)CC2(CCO1)OC(=O)CC2C#N (centres undefined) | 1 | 0.985
41 | Fc1cccc(Cl)c1CSc1ccccc1C1=NCCCN1 | -0.3 | -0.44
42 | FC(F)(F)c1cnc(NCCNc2cnc3ccccc3n2)c(Cl)c1 | -0.45 | 23.6
43 | C#CCN=Cc1ccc(OCCC)cc1O | -0.1 | /
44 | Cc1cc(Nc2ccc3ccccc3n2)n(-c2ccccc2)n1 | -0.1 | /
45 | Cc1nc(C(=O)Nc2ccc(Cl)cc2)nn1-c1ccc(Cl)cc1Cl | / | 0.52
46 | CN(C(=O)c1cc2sccc2nc1C(F)(F)F)c1ccccc1 | / | 0
47 | COc1cccc(NC(=S)NC(Cc2ccccc2)c2ccccc2)c1 (centres undefined) | 2 | 0.225
48 | Cc1nc2ncccc2cc1C(=O)N(C)C | / | -0.155
49 | O=C(O)C1Cc2c([nH]c3ccccc23)C(c2cccc(O)c2)N1 (centres undefined) | / | 4.62
50 | COCCN1CN(Cc2ccccc2)c2nc3ccccc3n2C1 | 0.05 | /
51 | Cc1ccc(S(=O)(=O)Nc2c(C)[nH]c(=O)[nH]c2=O)cc1 | -0.4 | 0.185
52 | Cc1ccccc1NC(=O)CSC1=C(C#N)C(c2ccco2)C2=C(CC(C)(C)CC2=O)N1 (centres undefined) | 0.4 | -0.03
53 | CC(C)(C)c1csc(NC(=O)C(CC(=O)O)NCc2ccco2)n1 (centres undefined) | 0.65 | 0.16
54 | O=C(Cn1[nH]c(=O)c2ccccc2c1=O)N1CCN(C/C=C/c2ccccc2)CC1 | -0.25 | /
55 | Cc1nn(-c2ccccc2)c2c1N(C(=O)CCC(=O)Nc1ccccc1Cl)CCS2 | 1 | -0.13
56 | C=CCN=Cc1c(NCC=C)nc2ccccn2c1=O | -0.1 | 19.3
57 | CCOC(=O)c1sc(=S)n(-c2ccc(OC)c(Cl)c2)c1N | -0.35 | -0.155
58 | O=C1c2ccccc2-c2onc3c(N4CCCCC4)cc(Nc4ccc(Cl)cc4)c1c23 | / | -0.225
59 | CC(C)COCC1CC2(CC(C)(c3csc(N)n3)OC2=O)C(=O)O1 (centres undefined) | / | 49.4
60 | O=C(Nc1ccc2c(c1)OCO2)Nc1ccc(N2CCOCC2)c2nonc12 | 0.2 | -0.165

Other entries follow:
No. | structure | AID504770 | CapD inh
61 | COc1cccc(C(=O)Nc2nc3cc4c(cc3s2)OCO4)c1 | 2.45 | /
62 | CCOc1ccc(C(=O)N(C)CC2COc3ccccc3O2)cc1 (centres undefined) | -0.15 | /
63 | COc1ccc(/C=C(\C#N)c2cccs2)cc1 | -0.65 | /
64 | CC(c1ccccc1)n1c(=O)[nH]c2ccccc21 (centres undefined) | -0.55 | /
65 | COc1cccc(CN(Cc2ccco2)C(=O)CCc2nc3ccccc3n2C)c1 | / | -0.16
66 | CN1C2CCC1CC(NC(=O)CSc1ccc(F)cc1F)C2 (centres undefined) | 0.5 | 0.945
67 | CSc1ncc(Cl)c(C(=O)Nc2cccc3ccccc23)n1 | -0.5 | -0.355
68 | Nn1c(SCc2ccccc2)nnc1C(F)(F)F | -0.35 | -0.69
69 | CCN1CCN(C(=O)C(NC(=O)C2CCC(C)CC2)C(C)C)CC1 (centres undefined) | -1.6 | -0.575
70 | COCCCNC(=O)c1sc2ncnc(N3CCN(c4ccccc4F)CC3)c2c1C | / | 0.045
71 | CSc1n[nH]c(-c2ccc(C(C)(C)C)cc2)n1 | 0.35 | -1.25
72 | O=S1(=O)N=CNc2ccc(S(=O)(=O)N3CCc4ccccc43)cc21 | 0.6 | -0.625
73 | O=c1[nH]cnc2c1sc1nc(N3CCCCC3)c3c(c12)CCCC3 | -0.15 | 2.27
74 | COc1ccc(N2CCN(C(=O)CCCN3C(=O)CSC3=S)CC2)cc1 | -0.35 | /
75 | CCc1cccc2c(C(=O)COC(=O)/C=C/c3ccco3)c[nH]c12 | 0.65 | /
76 | CC(C)COP(=O)(c1ccc(N(C)C)cc1)C(O)c1ccc(N(C)C)cc1 (centres undefined) | 0.8 | -0.125
77 | COc1ccc(/C=C2\SC(=O)N(CC(N)=O)C2=O)cc1 | 0.25 | /
78 | CC(=O)Nc1ccc(S(=O)(=O)Nc2ccccc2C(=O)NC(C)(C)C)cc1 | -0.35 | 1.11
79 | COC(=O)c1cn(NC(=O)C2CCC(C)CC2)c(=O)c2ccccc12 (centres undefined) | 1.05 | 0.37
80 | Cc1[nH]n(-c2cccc(Cl)c2)c(=O)c1C=Nc1ccc(Cl)cc1Cl | / | -0.505
81 | CC1CC(C)CN(C(=O)CSc2ncccc2C(=O)O)C1 (centres undefined) | -0.9 | 0.18
82 | O=C(COc1ccccc1)N1CCNCC1 | 2.45 | /
83 | O=C(CSc1ncnc2c1oc1ccccc12)NCCc1ccccc1 | -1.05&0.15 | -0.17&0.82
84 | CCN(CC)c1nc(SCC(=O)O)nc(N(CC)CC)n1 | -0.55 | 0.53
85 | Cc1nnc(Oc2ccc(Cl)cc2Cl)c2ccccc12 | 0.15 | -0.22
86 | CC(O)c1nc2ccccc2n1CN1CCN(c2ccccc2)CC1 (centres undefined) | 1.5 | /
87 | O=C(Nc1ccccc1)c1csc2ccc(Cl)cc12 | 1.35 | -0.795
88 | Cc1cccc(NC(=O)Cn2nnc(C(=O)NCc3cccs3)c2N)c1C | 0.5 | -0.305
89 | COc1ccc(CCNC(=O)CCN2C(=O)C(C)Oc3ccc(C)cc32)cc1OC (centres undefined) | -0.05 | -0.035
90 | COc1cc(C(=O)Oc2ccc3[nH]cc(CCN4C(=O)c5ccccc5C4=O)c3c2)cc(OC)c1OC | / | -0.34
91 | O=C1c2cc(O)ccc2-c2ccc(O)cc21 | / | -0.265
92 | COC(=O)C1=CN(CC23CC4CC(CC(C4)C2)C3)C=C(C(=O)OC)C1c1ccc(F)cc1 | -0.2 | 42.9
93 | N#Cc1ccccc1S(=O)(=O)N1CCN(CC(=O)N2CCCC2)CC1 | / | -0.38
94 | CCCn1c(SCC(=O)Nc2cc(C)on2)nc2sc3c(c2c1=O)CCCC3 | 1.55 | /
95 | CC(=O)C1CCC2C3CC=C4CC(OS(=O)(=O)O)CC[C@]4(C)C3CC[C@]12C (some centres undefined) | / | 1.5
96 | O=C1N/C(=C/c2ccccc2)C(=O)N1c1cccc(Cl)c1 | 0.05 | 1.02
97 | O=C(Nc1sc2c(c1C(=O)O)CCCC2)c1ccc(Br)cc1 | -1.35 | -0.46
98 | CCn1c2ccccc2c2cc(N)ccc21 | 0.7 | 66.4
99 | C=CCNC(=O)c1cc(C)on1 | 1.8 | -1.88
100 | CCN(C(=O)c1ccco1)c1nc(CC(=O)Nc2ccc(Cl)cc2)cs1 | -0.95 | /
101 | CC1CCN(S(=O)(=O)c2ccc(C(=O)Oc3ccc4c(c3)OCO4)cc2)CC1 | 1.7 | /
102 | O=C(O)c1ccc(Cn2cnc3ccccc32)cc1 | / | 0.18
103 | NCCN1CCCC1=O | 1.65 | /
104 | CC(=O)Nc1ccccc1OCC(N)=O | 0.05 | -0.155
105 | CCn1cc(C(=O)Nc2ccccc2)c(=O)c2ccc(C)nc21 | 0.3 | /
106 | COc1ccc(CC(=O)Nc2ccc(N3CCOCC3)cc2)cc1S(=O)(=O)N1CCOCC1 | -0.05 | /
107 | O=C(COC(=O)c1ccc(S(=O)(=O)Nc2ccccc2)cc1)Nc1nnc(-c2ccccc2)o1 | -0.15 | /
108 | COc1cccc(NC(=O)Cc2ccccc2)c1 | -0.25 | 0.26
109 | O=C(CCOc1ccc(F)cc1)N1CCSCC1 | -1.15 | 0.13
110 | Cc1nc(N2CCN(c3ccccn3)CC2)c2c(C)c(C(=O)Nc3cccc([N+](=O)[O-])c3)sc2n1 | / | -0.67
111 | CN(C(=O)CN1C(=O)c2ccccc2S1(=O)=O)c1ccccc1C(=O)O | 1.25 | 0.54
112 | O=S(=O)(Nc1ccc(F)c(F)c1)c1ccc(F)cc1 | 1.8 | 0.795
113 | S=C(c1ccc2c(c1)OCO2)N1CCCC1 | 0 | -0.39
114 | COC(=O)c1ccc(C2N=C(c3cccc(OC)c3)CC(c3ccccc3O)N2)cc1 (centres undefined) | -0.75 | 0.485
115 | CCOC(=O)N1CCN(C(=O)c2cccn3c(=O)c4cc5ccccc5cc4nc23)CC1 | -0.4 | -0.18
116 | CN(c1ccc(Oc2ncnc3c2oc2ccccc23)cc1)S(=O)(=O)c1ccc(Cl)cc1 | -0.75 | /
117 | CCOC(=O)c1ccc(OC(=O)/C=C/c2cccs2)cc1 | -0.95 | -1.66
118 | COCCNC(=O)c1cccc(OC(C)C)c1 | -0.8 | 0.265
119 | CN1CCN(c2ccc(CNS(=O)(=O)c3cccc4nonc34)cc2)CC1 | -0.5 | 0.205
120 | CS(=O)(=O)c1ccc(-c2csc(-n3nccc3C(F)(F)F)n2)cc1 | 0.3 | /

Next part:
No. | structure | AID504770 | CapD inh
121 | COc1ccc(CCNC(C)C(=O)NC2(C#N)CCCCC2)cc1OC (centres undefined) | 1.1 | /
122 | COc1ccc(-c2cc(N)c(C(N)=O)s2)cc1 | / | 27.6
123 | CCOC(=O)C1=C(c2ccccc2)N=C2SCC(=O)N2C1c1ccc(Cl)cc1 (centres undefined) | / | -0.32
124 | COc1ccc(C(=O)c2ccc(-c3cccs3)s2)cc1 | -0.05 | 14.6
125 | CN1CCC(OC(=O)Cc2ccc(Cl)cc2)CC1 | -0.95 | /
126 | Cc1c(C(=O)N2CCOCC2)cc(-c2ccccc2)n1-c1ccccc1 | -0.25 | -0.12

This is a subset. The share of hits here may be higher or lower than overall.
